KCNQ2 inh – KCNQ2 channel blockers in CHO-K1 cells – cell-based, FluxOR thallium flux, B-score, primary screen (AID 2156). 1.1% of 310,000 active. O88943. 20 min; stronger effect = lower value; only compounds with negative scores are shown here; some inactives read as strong as hits. B-score at 10 µM;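 active = fluorescence ratio B-score at most minus 3 library SDs, with starting brightness B-score within 2 library SDs, cut at about -5.5 in these data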
Target sequence (O88943 whole entry, looked up): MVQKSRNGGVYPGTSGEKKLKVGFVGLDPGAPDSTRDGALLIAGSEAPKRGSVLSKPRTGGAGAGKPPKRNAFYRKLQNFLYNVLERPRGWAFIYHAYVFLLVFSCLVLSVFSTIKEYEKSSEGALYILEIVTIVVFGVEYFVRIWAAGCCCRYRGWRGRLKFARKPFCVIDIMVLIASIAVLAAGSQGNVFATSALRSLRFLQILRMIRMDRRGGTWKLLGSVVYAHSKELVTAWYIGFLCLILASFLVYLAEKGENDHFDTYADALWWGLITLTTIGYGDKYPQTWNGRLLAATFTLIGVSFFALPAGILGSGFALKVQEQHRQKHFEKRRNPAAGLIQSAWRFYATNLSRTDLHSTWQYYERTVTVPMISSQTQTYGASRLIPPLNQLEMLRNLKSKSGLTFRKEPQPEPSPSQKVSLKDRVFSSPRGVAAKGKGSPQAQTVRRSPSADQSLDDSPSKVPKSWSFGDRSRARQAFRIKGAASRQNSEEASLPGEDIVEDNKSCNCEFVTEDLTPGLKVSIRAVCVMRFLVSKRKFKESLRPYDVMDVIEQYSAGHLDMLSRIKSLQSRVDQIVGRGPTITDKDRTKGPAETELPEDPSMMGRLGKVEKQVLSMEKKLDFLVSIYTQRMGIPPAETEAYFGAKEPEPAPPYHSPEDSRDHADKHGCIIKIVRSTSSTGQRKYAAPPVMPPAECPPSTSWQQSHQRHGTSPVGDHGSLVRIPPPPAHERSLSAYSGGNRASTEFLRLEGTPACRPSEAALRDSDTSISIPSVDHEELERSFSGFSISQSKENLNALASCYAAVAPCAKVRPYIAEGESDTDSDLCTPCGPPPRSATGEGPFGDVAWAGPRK
KCNQ2 inh baseline – also measured in KCNQ2 inh; calls as there; B-score; measured here: initial fluorescence intensity artifact check;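 brightness before thallium and not channel activity; 0 = typical well and far values either way flag optical interference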
* marks the source's active call; other numbers are inactive results; i = inactive. A portion of the library; count on the stated rates, not on these rows.

compound,KCNQ2 inh,KCNQ2 inh baseline
CN(C)CC1CCCCC1OC(=O)c1ccc(Br)cc1 (stereo not drawn),i,4.6
O=C(Cn1ccc2cc(S(=O)(=O)N3CCCC3)ccc21)NCCc1ccccc1,i,0.76
O=C(CCC(=O)N(CC(=O)NC1CCCCC1)c1ccc2c(c1)OCO2)Nc1ccccn1,i,-0.15
COc1cc(CC(=O)Nc2sccc2C(N)=O)cc(OC)c1OC,i,0.04
COc1ccc(CNC(=O)C2CCCN2S(=O)(=O)c2ccc(F)cc2)cc1 (stereo not drawn),i,-1.2
COc1ccc(N(CC(=O)NCc2ccco2)S(C)(=O)=O)cc1,i,0.32
Cc1c(C(c2cccc([N+](=O)[O-])c2O)c2c(C)n(C)n(-c3ccccc3)c2=O)c(=O)n(-c2ccccc2)n1C,i,1.4
CCOC(=O)c1c(NC(=O)Cc2cccs2)sc2c1CCCC2,i,0.11
Cc1ccc(OCc2nnc(-c3ccc(Cl)cc3)o2)cc1,i,-1.1
COc1ccc(C(=O)NC2CCCN(Cc3ccc(Cl)cc3)C2)c(OC)c1 (stereo not drawn),i,-3.6
CCSc1ccc([C@@H]2[C@@H]3C(=O)N(CC)C(=O)[C@@H]3[C@]3(C(=O)OC)CCCN23)cc1,i,0.03
CC(C)c1ccc(NCCC(=O)c2cccs2)cc1,i,2.1
CCC(C)(C)NC(=O)CN(C(=O)CCC(=O)Nc1cc(C)ccn1)c1ccc2c(c1)OCCO2,i,0.69
O=C(CSc1nnnn1-c1ccc(Cl)cc1)NNC(=O)c1ccc([N+](=O)[O-])cc1,i,-0.6
C=CCc1ccc(OCCOCCOc2ccc(C)cc2[N+](=O)[O-])c(OC)c1,i,0.12
CCN(c1ccccc1)S(=O)(=O)c1ccc(OCC(=O)Nc2cc(C)on2)cc1,i,1.3
CCOC(=O)C1=C(C)N=C2SC(C)C(=O)N2C1c1ccc(OC(C)=O)c(OCC)c1 (stereo not drawn),i,-0.75
CCOC(=O)c1c(C)[nH]c(C(=O)N2CCN(c3ccc(OC)cc3)CC2)c1C,i,0.63
O=C(Nc1cnccn1)Nc1ccccc1F,i,0.04
COc1ccc(C(CNC(=O)c2cncc(Br)c2)N(C)C)cc1 (stereo not drawn),i,-0.63
O=C(Nc1cccc2ccccc12)c1onc2c1CCCC2,i,-1.9
COc1ccc(OCc2cccc(C(=O)N3CCCC3)c2)cc1,i,-0.04
O=C(Nc1ccc(C(=O)N2CCCC2)cc1)c1ccccc1F,i,2
COc1ccc(C(=O)NC(=S)Nc2ccc(NC(=O)c3ccco3)cc2)cc1[N+](=O)[O-],i,-0.46
CN(Cc1ccccn1)Cc1cn(Cc2ccccc2)nc1-c1ccc2c(c1)OCO2,i,-0.82
O=C(c1cc2n(n1)C(C(F)(F)F)CC(c1ccco1)N2)N1CCN(c2ccccn2)CC1 (stereo not drawn),i,0.16
COc1cccc(CNC(=O)C2CCC(CNc3nc(=S)[nH]c4ccccc34)CC2)c1 (stereo not drawn),i,2.3
Cc1cc(F)ccc1S(=O)(=O)Nc1ncnc2sccc12,i,-0.03
CSc1nnc(-c2sccc2OCc2ccc(C)cc2)n1C,i,-0.33
COc1ccc(Cn2c(=S)[nH]c3cc(C(=O)N4CCN(c5ccccc5)CC4)ccc3c2=O)cc1,i,-0.33
O=C(NCCc1ccccc1)c1ccc(CS(=O)Cc2ccc(Cl)cc2)o1 (stereo not drawn),i,-1
CC(=O)c1ccc(S(=O)(=O)N(C)CCCC(=O)N(C)Cc2ccccc2F)cc1,i,-0.74
COc1ccccc1CNC(=O)c1csc2c1CCCC2,-6.5*,-0.96*
COC(=O)c1sccc1NC(=S)N1CCN(c2ccccc2)CC1,i,-0.02
COc1ccc(OCC(=O)N2N=C(C)CC2(O)C(F)(F)F)cc1 (stereo not drawn),i,1.6
O=C(CSc1ccc(-c2ccco2)nn1)Nc1ccccc1F,i,-0.69
O=C(CSc1nnc(NC(=O)c2c(F)cccc2F)s1)NC1CCCC1,i,0.01
S=C(Nc1ccccc1Cl)N(Cc1ccccc1)Cc1cccnc1,i,1.6
O=C(CSc1cc([N+](=O)[O-])cc(S(=O)(=O)Cc2ccccc2)c1)NC1CC1,i,-1.5
COc1cc(/C=N/NC(=O)Cc2nnc(NC(=O)c3ccccc3)s2)ccc1O,i,-1.8
CN(O)/C=c1/ccc2c(n1)C(=O)C=CC=2,i,0.68
Cc1ccc(OCC(=O)O/N=C(\N)c2cccnc2)cc1,i,-0.72
CCc1noc(C)c1C(=O)N1CCCSC1=Nc1ccccc1Cl,i,0.01
CCCN1C=CC(=C2C(=O)c3ccccc3C2=O)C=C1,i,0.07
COC(=O)c1ccc(CN(c2ccc(C)cc2)S(=O)(=O)c2ccc3c(c2)OCCO3)o1,i,-0.16
COc1ccc(NC(=O)CSc2nnc(CNC(=O)COc3ccc(Cl)cc3)o2)cc1,i,1.1
CCC(C(=O)Nc1nnc(-c2ccco2)s1)c1ccccc1 (stereo not drawn),i,1.1
Cc1cccc(-c2noc(CN(C(=O)C34CC5CC(CC(C5)C3)C4)C(C)C)n2)c1,-5.7*,-0.39*
Cc1ccc(SCCC(=O)NCCSCc2ccco2)cc1,i,-0.78
COc1ccc2c(c1)CC/C2=N\OC(=O)c1ccccc1OC,i,1.6
CC(=O)c1cn(Cc2ccccc2)c(=O)[nH]c1=O,i,0.01
CCSc1nnc(NC(=O)[C@@H](NC(=O)c2cc(OC)cc(OC)c2)C(C)C)s1,i,-1
Cc1cc(C)nc(SCc2n[nH]c(=S)n2C)n1,i,0.39
Cc1sc2ncn(CC(=O)NCCc3ccccc3)c(=O)c2c1C,i,-0.42
COC(=O)c1sc(S(=O)(=O)NCc2cccs2)c(C(=O)OC)c1C,i,-1.4
CCCSc1nc2c(c(=O)[nH]c(=O)n2C)n1Cc1ccccc1,i,0.32

Additional results follow:
compound,KCNQ2 inh,KCNQ2 inh baseline
Cn1c(SCc2ccc([N+](=O)[O-])cc2)nc2c(c1=O)SCC2,i,0.32
COc1ccc(CN2C(=O)c3ccccc3C2C(=O)NC2CCCCCC2)c(OC)c1 (stereo not drawn),i,-0.01
O=C(COC(=O)c1ccccc1NS(=O)(=O)c1cccs1)NCC12CC3CC(CC(C3)C1)C2,i,-0.34
Cc1ccc(N2CC(C(=O)NCc3ccc(C)n3C)CC2=O)cc1 (stereo not drawn),i,-0.14
O=C(O)C12CC3CC(C1)CC(n1ncc(NCc4ccco4)c(Cl)c1=O)(C3)C2,i,-0.69
Cc1nc(-c2nnc(-c3ccccc3)o2)c(C(F)(F)F)o1,i,0.01
O/N=C/c1cc(Br)ccc1OCc1cccc(F)c1,i,0.39
CCCN(CC(=O)Nc1ccc(C(N)=O)cc1)CC(=O)Nc1ccc(Cl)cc1Cl,i,-0.17

Gathered by group, those above with a nitro group on carbon.
compound,KCNQ2 inh,KCNQ2 inh baseline
Cc1c(C(c2cccc([N+](=O)[O-])c2O)c2c(C)n(C)n(-c3ccccc3)c2=O)c(=O)n(-c2ccccc2)n1C,i,1.4
O=C(CSc1nnnn1-c1ccc(Cl)cc1)NNC(=O)c1ccc([N+](=O)[O-])cc1,i,-0.6
C=CCc1ccc(OCCOCCOc2ccc(C)cc2[N+](=O)[O-])c(OC)c1,i,0.12
COc1ccc(C(=O)NC(=S)Nc2ccc(NC(=O)c3ccco3)cc2)cc1[N+](=O)[O-],i,-0.46
O=C(CSc1cc([N+](=O)[O-])cc(S(=O)(=O)Cc2ccccc2)c1)NC1CC1,i,-1.5
Cn1c(SCc2ccc([N+](=O)[O-])cc2)nc2c(c1=O)SCC2,i,0.32

Remaining list, next part.
compound,KCNQ2 inh,KCNQ2 inh baseline
NC(=O)N[C@@H](Cc1c[nH]c2ccccc12)C(=O)OCC(=O)N1CCCCC1,i,2
Cc1ccsc1-c1nc(CN2CCCC2c2ccc(F)cc2)c(C)o1 (stereo not drawn),i,-0.12
COc1cccc(CNC(=O)c2cc3c(cc2Cl)N2CCCCCC2=NS3(=O)=O)c1,i,1.7
CC1(C)CC(=O)C2=C(C1)OC1=C(C(=O)CC(C)(C)C1)C2c1ccccc1,i,2.7
CCOC(=O)N1CCN(C(=O)c2ccc3c(c2)N=C(CC)c2cc(C)ccc2S3)CC1,i,1.4
COc1ccccc1CN(C(=O)Cc1cccs1)C(C(=O)NC1CCCC1)c1ccncc1 (stereo not drawn),i,0.79
COc1ccc(/C=C/C(=O)Nc2ccc(C)cc2)cc1S(=O)(=O)N1CCOCC1,i,-0.47
Cc1cccc(N2C(=O)C3C(c4ccccc4)OC4(C(=O)c5ccccc5C4=O)C3C2=O)c1 (stereo not drawn),i,1.1

Reprinted from the part before: three compounds, then new ones.
compound,KCNQ2 inh,KCNQ2 inh baseline
COc1ccccc1CN(C(=O)Cc1cccs1)C(C(=O)NC1CCCC1)c1ccncc1 (stereo not drawn),i,0.79
COc1ccc(/C=C/C(=O)Nc2ccc(C)cc2)cc1S(=O)(=O)N1CCOCC1,i,-0.47
Cc1cccc(N2C(=O)C3C(c4ccccc4)OC4(C(=O)c5ccccc5C4=O)C3C2=O)c1 (stereo not drawn),i,1.1
CC(CC(=O)NCc1cccnc1)c1ccccc1 (stereo not drawn),i,1.8
O=c1ccc(-c2nc3ccccc3n2Cc2ccc(Cl)cc2)c[nH]1,i,-0.48
COc1cc(OC)c(C2=NOC(C(=O)Nc3ccc4c(c3)OCO4)C2)cc1Cl (stereo not drawn),i,1.4
CCn1c(SCC(=O)Nc2ccc3c(c2)OCCO3)nc2c(c1=O)SC(C)C2 (stereo not drawn),i,1.1
O=C(NCc1cccnc1)C(=O)NCC1OCCN1S(=O)(=O)c1ccc(Cl)cc1 (stereo not drawn),i,0.55
COCCn1c(SCC(=O)NCc2ccc3c(c2)OCO3)nnc1C(C)C,i,-0.05
O=C(NNc1c(Cl)cccc1Cl)c1cccs1,i,-0.65
O=C(CCCn1c(=S)[nH]c2ccccc2c1=O)NC1CCCC1,i,-0.21
COc1cccc(N2C(=O)C(CC(=O)Nc3ccccc3)N(C3CCCCC3)C2=O)c1 (stereo not drawn),i,1.9
CCCCn1c(N)c(N(CC)C(=O)C(c2ccccc2)c2ccccc2)c(=O)[nH]c1=O,i,0.86
CCOC(=O)C1CCCN(Cc2cc(=O)oc3cc(C)c(C(C)C)cc23)C1 (stereo not drawn),i,0.05
COc1ccc(C(=O)NCc2nnc(SCC(=O)Nc3nc4ccccc4s3)o2)cc1OC,i,0.99
CC(C)CNS(=O)(=O)c1ccc(CCC(=O)NCc2ccco2)cc1,i,-0.45
CCC[N+](CC#Cc1ccccc1)(CCC)CC(=O)OCC,i,0.77
CCOc1ccc(NC(=S)N2CCC(N(C)CC3CCCO3)CC2)cc1 (stereo not drawn),i,0.67
CCCCC1CC(CSC(=N)N)OC1=O (stereo not drawn),i,-1.1
Cn1c(-c2sccc2OCc2ccc(Cl)cc2Cl)n[nH]c1=S,i,-1.1
CCC(=O)N(CCC(Cc1ccccc1)c1ccco1)Cc1ccco1 (stereo not drawn),i,0.34
CCn1c(SCC(=O)Nc2cc(Cl)ccc2OC)nnc1C1CC1,i,0.08
Cc1cccc(N/N=C(\C(N)=O)C2=NC(C)(C)Cc3ccccc32)c1,i,-0.16
Clc1ccc(-c2csc(-c3ccno3)n2)cc1,i,-1.4
O=C(Cc1ccc(Cl)c(Cl)c1)N1CCOCC1,i,0.16
Cc1noc(NS(=O)(=O)c2ccc(NC(=O)c3nn(-c4ccccc4)ccc3=O)cc2)c1C,i,-2.4
CCOc1ccc(NC(=O)CCn2ccnc2)cc1,i,2.7
O=C(N/N=C/c1cc([N+](=O)[O-])ccc1O)c1cccc2cc[nH]c12,i,0.91
CC(C)(C)NC(=O)CN(C(=O)CS(=O)CC(=O)Nc1ccc(F)cc1)c1ccccc1F (stereo not drawn),i,0.77
COCCn1c(C2CCCCC2)nc2sc3ccccc3c(=O)c2c1=O,i,4.4
Cc1ccc(S(=O)(=O)N2CCN(c3ccc(C(F)(F)F)cc3[N+](=O)[O-])CC2)cc1,i,0.36
CC(C)[C@H](NS(=O)(=O)c1ccc2c(c1)OCCO2)C(=O)OCC(=O)Nc1ccccc1,i,-0.23
CCN(CC)c1ccc(C(=O)Nc2cccc(F)c2)cc1,i,2
CCCCC(CC)C(=O)Nc1ncc([N+](=O)[O-])s1 (stereo not drawn),i,-0.43
CNC(=O)N(O)C1N(/N=C/c2ccccc2OC)C(=S)SC1(C)C (stereo not drawn),i,1.1
O=C1N/C(=C\c2ccccc2)C(O)=C1C=NCc1ccccc1,i,0.33
COC(=O)Oc1ccc(/C=N/NC(=O)CSCc2ccc(Cl)cc2)cc1OC,i,0.53
CCOc1cccc2sc(N(CCCN(C)C)C(=O)c3ccc(S(=O)(=O)N(CC)Cc4ccccc4)cc3)nc12,i,2.2
CCOC(=O)Cn1nc(-c2ccc(C)cc2)ccc1=O,i,1.1
Cc1ccc(C2C(=O)N(C3CCCC3)CC(=O)N2C2CCCCC2)cc1 (stereo not drawn),i,1.6
Cc1ccc(NC(=O)CN(C)CC(=O)Nc2ccc(F)c(F)c2F)c(Cl)c1,i,0.17
CCn1c(C)c(/C=N/Nc2nc3ccccc3s2)c2ccccc21,i,2.1
Cc1ccc(S(=O)(=O)N2CCCCC2)cc1C(=O)Nc1ccc(N2CCOCC2)cc1,i,1.8
C=CCn1c(=O)c(C(=O)Nc2ccccc2O)c(O)c2ccccc21,i,-0.19
CC[n+]1c(/C=C/C=C/N(C(C)=O)c2ccccc2)sc2ccccc21,i,44

Screening results (PubChem BioAssay)
